# AID504770: growth inhibition of E. coli YBA685, primary screen, V. cholerae RctB inhibitors; z-score (concentration not given with the values); E. coli YBA685 rctB-dependent plasmid, OD600 growth, 3 h; stronger effect = lower value; 0.27% of 130,000 active;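 active = z-score under -2 on both plates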;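 note: wells of about 30 µL received 100 nL stock; score is relative to mean and SD of the test wells; the first replicate is given; strong numbers were not always called active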
# Ba CapD inh: Bacillus anthracis CapD inhibitors, primary screen, biochemical, fluorescence intensity; CapD gamma-glutamyltranspeptidase (Bacillus anthracis Ames Ancestor); purified CapD enzyme, fluorescence intensity read-out; stronger effect = lower value; some hits fall short of the stated cut; z-score (test concentration not listed); 0.23% of 140,000 active; AID 492967, 2010;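 active = z-score under -4 in either of two replicates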;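 note: stock transfer was 100 nL into about 40 µL; score is relative to mean and spread of the plate; one replicate is shown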
# * marks the source's active call; other numbers are inactive results; · = not tested or not shown.
SMILES,Ba CapD inh,AID504770
C=CCNC(=O)N1c2ccccc2Sc2ccccc21,0.035,-0.65
O=C1Nc2ccc([N+](=O)[O-])cc2C1(O)N1CCOCC1 (stereo not drawn),-0.54,·
CCN(CC)c1ccc(-c2nnc(SC(C)C)n2C)cc1,·,0.15
CC(/C=C1\SC(=S)N(CCC(=O)Nc2cc(C)on2)C1=O)=C\c1ccccc1,-0.39,·
CC1=NN(c2ccc(C(=O)NCc3ccc(N(C)C)cc3)cc2)C(=O)C1,-1.1,·
NS(=O)(=O)c1cc(Cl)ccc1Cl,0.38,-0.75
O=C(O)c1ccc(CNCc2ccccc2)cc1,-0.38,-1.1
CCOC(=O)c1cc(C#N)c(C)nc1N1CCN(C(=O)OCc2cccc(OC)c2OC)CC1,0.56,·
Cc1ccc2nc(N3CCc4ccccc43)c3nncn3c2c1,-1.7,1.4
COc1ccccc1NC(=O)Cc1noc(COC(=O)c2ccc(C(F)(F)F)cc2)n1,·,0.05
N=C1S/C(=C\c2cc3c(cc2Br)OCO3)C(=O)N1c1ccc2c(c1)OCO2,-0.07,·
COc1ccc(C(=O)N=S2CCN(C(=O)c3ccc(Cl)cc3)CC2)cc1,2,2.1
O=C1CCCN2N=C(SCC(=O)N3CCCC3)SC2=N1,0.48,-0.3
Cc1c(C(=O)N2CCN(c3cccc(Cl)c3)CC2)sc2ncn(CC(=O)N3CCC(C)CC3)c(=O)c12,-1,·
O=c1oc2ccccc2cc1-c1nc(-c2ccc(Cl)cc2)cs1,0.96,·
COC(=O)C1=NNC2(c3ccc(C)cc3)C(=O)N(c3ccc(C)cc3)C(=O)C12 (stereo not drawn),·,1.5
c1ccc(CN2CCCC(c3ccccc3)C2)cc1 (stereo not drawn),-0.17,-0.6
COc1ccc(C(=O)/C(C#N)=C/NC2CCN(Cc3ccccc3)CC2)cc1,-0.77,·
CC1(C)CC2CC(C)(CN2C(=O)COC(=O)C2=NNC(=O)CC2)C1 (stereo not drawn),·,-0.8
C=CCNC(=O)C1CCN(S(=O)(=O)c2ccccc2C(F)(F)F)CC1,·,0.6
CC(=O)Nc1c(C)cc(C(O)(C(F)(F)F)C(F)(F)F)cc1C,0.54,-0.35
CCc1cccc(NS(=O)(=O)c2c(C)n[nH]c2C)c1,0.3,-0.3
c1ccc2c(c1)OCC(CSc1nnc3c(n1)[nH]c1ccccc13)O2 (stereo not drawn),-0.32,-0.6
COc1ccc(S(=O)(=O)N2CCC(c3ccccc3OC)CC2)cc1,0.045,·
COC(=O)C1CCCC(C(=O)OC)C1=O (stereo not drawn),-1.1,·

# (cont.)
SMILES,Ba CapD inh,AID504770
Clc1ccc(C2Oc3ccccc3C3CC(c4ccc(Br)cc4)=NN32)cc1 (stereo not drawn),0.61,·
CN(C)S(=O)(=O)c1ccc(S(=O)(=O)N2CCC(c3nc4ccccc4s3)CC2)cc1,·,-0.75
CCOC(=O)N/N=C/c1cc(OC)c(OC)c(OC)c1,0.18,·
Cc1cccc(C)c1Oc1nc2cc(Cl)c(Cl)cc2nc1C(F)(F)F,-0.77,·
Cc1c(C(=O)N2CCCc3ccccc32)oc2ccc(S(=O)(=O)N3CCOCC3)cc12,0.94,1
O=C(CC1NC2CCCCC2NC1=O)NCc1ccccc1 (stereo not drawn),·,-0.6
COc1ccccc1C(=O)N=S1CCN(S(=O)(=O)c2ccc(Cl)cc2)CC1,-0.32,-0.15
O=C(Cn1c(=O)c2ccccc2n2nncc12)Nc1ccccc1C(F)(F)F,0.85,-0.15
CC(C)CNC(=O)c1cc2ccccc2oc1=O,·,0.55
CCCN1C(=O)C(C#N)=C(C)/C(=C\c2ccc(-c3ccc(Cl)cc3)o2)C1=O,-0.025,-0.3
CCOc1ccc2cc(C3=NN(C(=O)CCC(=O)O)C(c4ccc(C)cc4)C3)c(=O)[nH]c2c1 (stereo not drawn),4.6,·
COc1cccc(CN2CCC(NC(=O)C3CCCN3C(=O)OC(C)(C)C)C2)c1[N+](=O)[O-] (stereo not drawn),0.15,·
CCc1ccc(NC(=O)C(C)OC(=O)c2cnc(Cl)c(Cl)c2)cc1 (stereo not drawn),0.03,-0.1
CCOc1ccc(C2Nc3ccc4ccccc4c3C3=C2C(=O)CC(C)(C)C3)cc1OC (stereo not drawn),-0.22,·
Cc1cc(N2C(=O)CSC2c2cccc([N+](=O)[O-])c2)ccc1Br (stereo not drawn),-0.03,·
CS(=O)(=O)c1ccc2nc(NC(=O)c3ccc4c(c3)CCCC4)sc2c1,1.9,-0.7
O=C(/C=C/c1ccccc1)OCC(=O)N1CCCC1,·,-0.55
N#Cc1c(N)n(CCC2=CCCCC2)c2nc3ccccc3nc12,·,0.15
c1ccc(-n2nnnc2-c2cnoc2-c2cccs2)cc1,7.9,-0.05
CC1=C(C(=O)OCCOC(C)C)C(c2cccc(OCc3ccccc3)c2)NC(=O)N1 (stereo not drawn),0.18,·
NC(=O)c1cc2[nH]c3ccccc3c2[n+](-c2ccc([N+](=O)[O-])cc2)c1N,-1.1,·
CCOC(=O)C1CCN(c2nc(-c3ccc(C)cc3)nc3ccccc23)CC1,-0.66,·
O=C(O)c1sc2cc(F)ccc2c1Cl,0.8,-0.3
Clc1ccc(Cn2nnc(N3CCCCC3)n2)cc1,-0.59,-2.4
CNc1nc2[nH]c(=O)c3c(c2s1)OC(N)=C(C#N)C3c1cccc(F)c1 (stereo not drawn),-0.13,0.3

# As a short view, 4 of the compounds above:
SMILES,Ba CapD inh,AID504770
CCCN1C(=O)C(C#N)=C(C)/C(=C\c2ccc(-c3ccc(Cl)cc3)o2)C1=O,-0.025,-0.3
CCOc1ccc2cc(C3=NN(C(=O)CCC(=O)O)C(c4ccc(C)cc4)C3)c(=O)[nH]c2c1 (stereo not drawn),4.6,·
COc1cccc(CN2CCC(NC(=O)C3CCCN3C(=O)OC(C)(C)C)C2)c1[N+](=O)[O-] (stereo not drawn),0.15,·
CCc1ccc(NC(=O)C(C)OC(=O)c2cnc(Cl)c(Cl)c2)cc1 (stereo not drawn),0.03,-0.1

# (more compounds)
SMILES,Ba CapD inh,AID504770
CNC(=O)c1ncoc1-c1ccc(Cl)cc1,-0.5,1.8
Cc1cc(OCCN)c(C(C)C)cc1Cl,·,-1
CN(Cc1ccccc1)C(=O)COC(=O)c1ccc(-n2cnnn2)cc1,·,-0.3
Cc1nc(-c2ccc(C(F)(F)F)cc2)sc1C(=O)NNC(=O)OCCC1=CCC2CC1C2(C)C (stereo not drawn),3.1,·
COc1cc(Br)c(CN2CCCC(COC(=O)NNC(=O)c3cccc(C)c3O)C2)cc1OC (stereo not drawn),2.3,·
O=C(Nc1ccccc1)Nc1ccc(S(=O)(=O)N(C2CC2)C2CCN(Cc3ccccc3)CC2)cc1,-0.48,·
CC12CS(=O)(=O)CC1SC(=S)N2c1ccccn1 (stereo not drawn),·,0.75
CC1(C)c2ccccc2N(Cc2ccccc2)C12C=Nc1c(ccc3ccccc13)O2 (stereo not drawn),0.035,·
FC(F)(F)c1cccc(NC(=S)N2CCOCC2)c1,-0.3,·
C=CCC(c1ccccc1)N(C(C)=O)c1ccco1 (stereo not drawn),·,0.1
O=C(Cn1cnc2ccccc2c1=O)NCc1ccccc1,·,-0.6
Cc1ccccc1-n1c(SCc2c(C)noc2C)nnc1-c1ccncc1,·,0.1
O=C(NN1CCOCC1)c1ccco1,·,0.95
Cc1ccc(-n2nc3c(c2NC(=O)CCC2CCCCC2)CSC3)cc1,-0.92,1.4
Cc1nc(N)[nH]c(=O)c1Oc1ccc(Cl)cc1Cl,0.06,-0.8
N#Cc1nc(CNc2ccccc2)oc1Nc1ccccc1,4.3,0.5
Cc1cc(NC(=O)C(C)Sc2nc(-c3ccccc3)cc(=O)[nH]2)no1 (stereo not drawn),·,-0.2
O=C(NCCn1ccc2ccccc21)C1CCCCC1,-0.29,0.3
O=C(Cn1c(=O)n(Cc2ccc3c(c2)OCO3)c(=O)c2ccc(C(=O)NC3CCCCC3)cc21)NCc1ccco1,-0.18,2.3
CCCC1=C(C(=O)OCC)C(c2cc(OC)c(OC)c(OC)c2)C(C#N)=C(N)O1 (stereo not drawn),2.1,·
CCCCOc1ccc(C(=O)N2c3ccccc3N3C(c4c(C)c(Cl)c(C)c(Cl)c4C)=NON23)cc1,0.04,·
COc1ccc(N2C(=O)C(N3C(=O)c4ccccc4C3=O)C2c2cc(OC)c(OC)c(OC)c2)cc1Cl (stereo not drawn),0.06,·
O=S(=O)(c1ccccc1)N1CCC2(CC1)OCCN2S(=O)(=O)c1ccccc1,·,-0.15
O=C(CCc1nc2cc(C(F)(F)F)ccc2n(Cc2ccccc2)c1=O)NCc1ccco1,·,-0.25
c1ccc2cc(CNCCc3ccc4c(c3)OCO4)ccc2c1,0.055,-0.55

# More entries
SMILES,Ba CapD inh,AID504770
CS(=O)(=O)c1cccc(S(=O)(=O)NC2CCCCC2)c1,0.69,0.6
CN1C(C(=O)c2ccccc2)=C(OC(=O)Cc2ccccc2)c2ccccc2S1(=O)=O,-0.96,-0.35
O=C1CCCN=C(N(C(=O)c2ccco2)c2ccc(F)cc2F)S1,-0.56,1.9
CCCc1[nH]nc2c1C(c1ccc(OC(=O)c3cccs3)c(OC)c1)C(C#N)=C(N)O2 (stereo not drawn),-0.17,·
CC1(C)CC(N=C=S)CCO1 (stereo not drawn),·,-1.6
CC1CN(CCCNC(=O)Nc2ccc(Cl)cc2)CC(C)O1 (stereo not drawn),-0.27,0.4
COCCCNC(=O)CSc1nc2ccccc2c(=O)n1CCC(=O)NCCc1ccc(OC)c(OC)c1,-0.68,·
CC(C)Sc1ncnc2c1oc1ccccc12,0.47,-0.8
CC1=CC(C)C2COC(c3ccc(OC(=O)NC4CCCCC4)cc3)C1C2C (stereo not drawn),0.71,-0.15
Cc1nc(C(=O)NNC(=O)OCC(C)c2ccccc2)cs1 (stereo not drawn),0.005,·
O=C(Nc1nc(=S)ss1)c1ccc(Cl)cc1,-1.3,-0.5
Cc1cc(C(=O)COc2ccc(-c3ccc(C#N)cc3)cc2)c(C)n1C,·,0.65
COc1cc(-c2nc3ccccc3c(=O)n2NC(=O)c2ccc(F)cc2Cl)cc(OC)c1OC,-0.29,·
CC(C)NC(=O)C(C)SCc1ccccc1 (stereo not drawn),0.35,-0.5
O=C(NCc1cc(C(F)(F)F)cc(C(F)(F)F)c1)NC1CCN(Cc2ccccc2)C1 (stereo not drawn),0.32,·
CCN(C(=O)c1cc(N(C)C)nc(N(C)C)n1)c1cc(OC)cc(OC)c1,-0.52,·
O=S(=O)(NC(c1ccccc1)C(O)c1ccccc1)c1cc(Cl)cc(Cl)c1 (stereo not drawn),0.59,·
Cn1cnnc1S/C=C/C(=O)c1ccc(Cl)cc1,-0.27,-1.3
COc1ccc(/C=C2/SC(=O)N(CNc3cc(F)ccc3C)C2=O)cc1OC,3.6,·
COc1ccc(Cc2nn3c(Cn4cnc5ccccc54)nnc3s2)cc1,·,-0.4
N#CCSc1cccc[n+]1[O-],0.1,1.6
Cn1cc(-c2csc(N)n2)cn1,·,1.4
COc1cc(C(=O)NN2CCN(C)CC2)cc(OC)c1OC,-0.22,0.4
CC1CCN(C(=O)c2ccccc2NC(=O)C(C)(C)C)CC1,-0.34,-0.4
c1ccc(Cn2c3c(c4ccccc42)CCc2nonc2-3)cc1,-0.065,1.1

# Next part (2 carried over from the part before).
SMILES,Ba CapD inh,AID504770
CC1CCN(C(=O)c2ccccc2NC(=O)C(C)(C)C)CC1,-0.34,-0.4
c1ccc(Cn2c3c(c4ccccc42)CCc2nonc2-3)cc1,-0.065,1.1
CSc1cccc(NC(=O)C2(S(=O)(=O)c3ccc(C)cc3)CC2)c1,0.09,-0.7
CCn1c(Sc2nc(C)nc3scc(-c4cccs4)c23)n[nH]c1=O,·,-0.05
CCOC(=O)c1sc2nc(C)nc(N3CCN(c4ccccc4)CC3)c2c1C,0.14,·
O=C(Nc1nnc(C(F)(F)F)s1)C(Cc1ccccc1)N1C(=O)C2C3C=CC(C3)C2C1=O (stereo not drawn),-0.095,-1.7
COc1cc(C2CC(=O)NC(SCC(=O)Nc3ccc(C)c(C)c3)=C2C#N)cc(OC)c1OC (stereo not drawn),3,-0.05
O=C(NC1CCCCC1)c1ccc(-n2ccc3ccccc32)s1,51,-0.75
O=C(O)/C=C/C(=O)N1CCN(c2ncc(C(F)(F)F)cc2Cl)CC1,0.15,-0.6
O=C(Nc1ccc(F)cc1)c1ccccc1NS(=O)(=O)N1CCCC1,6.8,1.4
C=Cn1cc[n+](CC(=O)c2ccc(Cl)cc2)c1,·,-0.1
O=C(CC1SC(N2CCCCC2)=NC1=O)Nc1cccc(Cl)c1Cl (stereo not drawn),·,-0.1
O=C1NC(c2ccccc2)(C(F)(F)F)N=C2SC3=C(CCCC3)N12 (stereo not drawn),·,-0.3
CCOC(=O)c1cnn(C(=O)COc2ccc(C)c3c2CCC3)c1N,1.1,-1.9
CNC(=O)Cn1ncc2c3ccccc3n(Cc3ccccc3)c2c1=O,20,-0.4
C=CCn1c(SCC(=O)Nc2ccc3c(c2)OCO3)nc2scc(-c3ccc(F)cc3)c2c1=O,-0.34,·
O=C1NC2(CCCC2)C(=O)N1Cc1cc(=O)n2ccsc2n1,·,-1.1

# Grouped by structure: the compounds so far with a tert-butyl group (2)
SMILES,Ba CapD inh,AID504770
COc1cccc(CN2CCC(NC(=O)C3CCCN3C(=O)OC(C)(C)C)C2)c1[N+](=O)[O-] (stereo not drawn),0.15,·
CC1CCN(C(=O)c2ccccc2NC(=O)C(C)(C)C)CC1,-0.34,-0.4

# No enrichment for hits (roughly 0.41% active in at least one column).
